Bead autofluor: counter-screen for toxin protease inhibitors: compound fluorescence; compound autofluorescence counterscreen, microsphere flow cytometry; stronger effect = higher value; fluorescence intensity (test concentration not listed); actives 3.1% (n = 360,000);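 active = at least 3 SD above the mean of all compounds, about 16000 in these data; inconclusive = too few beads counted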;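 also: 100 nL of 1 mM stock went into each well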
BJeLR viability: kills HRASV12-expressing BJeLR cells. BJeLR (HRASV12) viability, CellTiter-Glo ATP luminescence, 48 h; reference of the scale not given here. inhibition, % (concentration not given with the values). actives 0.17% (n = 300,000);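 active = replicate mean above 50%; inconclusive = above 50% but judged a plate artefact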;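 also: 50 nL library stock added to about 25 µL; numbers are from one replicate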
ugtP null kill: compounds lethal to S. aureus RN4220 ugtP deletion mutant | growth inhibition, % (concentration not given with the values) | OD600 growth, 16 h; some inactives read as strong as hits | actives 0.54% (n = 330,000);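 active = z-score under -3 and OD600 up to 0.15 on both plates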;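 also: plate controls were untreated wells for no effect and antibiotic for full effect; wells of about 80 µL received 100 nL stock; the first replicate is given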
Mtb hypoxia inh: inhibitors of hypoxia-regulated fluorescent reporter in Mycobacterium tuberculosis. M. tuberculosis hypoxia-regulated fluorescent reporter, fluorescence. fluorescence inhibition, % (concentration not given with the values). actives 0.1% (n = 300,000);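 active = 35 to 45% if threefold the growth effect, above 45% if 1.5-fold the growth effect; inactive = the rest, general growth blockers included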;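 also: wells of about 50 µL received 100 nL stock; 0% = vehicle wells and 100% = reference inhibitor wells; whole bacteria with a GFP reporter of the hypoxia response; strong numbers were not always called active; many hits fall short of the cut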
Sa RN4220 lethal: kills Staphylococcus aureus RN4220 | S. aureus RN4220 growth, OD600, 16 h | inhibition, % (no concentration beside the values) | actives 0.33% (n = 330,000);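 active = z-score of -3 or lower and OD600 up to 0.18 on both plates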;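 also: plate controls were untreated cells for no effect and reference antibiotic for full effect; stock transfer was 100 nL into about 80 µL; one replicate is shown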
PrP 5UTR inh: inhibition of PrP 5' UTR reporter expression; cell-based PrP 5' UTR mRNA reporter, plate reader; inhibition, % (test concentration not listed); actives 0.35% (n = 340,000);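 active = every replicate at 50% or more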;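 also: 0 = median of the neutral control wells; tested in H4 reporter cells; numbers are from one replicate; inactives centre near -14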
Mtb hypoxia inh growth: recorded beside Mtb hypoxia inh, whose call it bears; growth inhibition, %; measured here: M. tuberculosis growth (absorbance);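 0% = vehicle and 100% = reference antibiotic; read after six days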
* hit, by the source's call; ? = inconclusive; . = no result given. Compounds as they come; any-hit rate near 4%.

SMILES	Bead autofluor	BJeLR viability	ugtP null kill	Mtb hypoxia inh	Mtb hypoxia inh growth	Sa RN4220 lethal	PrP 5UTR inh
CCn1cc(CNC(=O)c2cc(COc3ccc(F)cc3Cl)on2)cn1	4061	6	7	7	-2	4.9	-34
CC(=O)CCS(=O)(=O)c1ccc(Oc2ccc(S(=O)(=O)CCC(C)=O)cc2)cc1	2403	-15	-5	9	5	2.9	-7
O=C(NCCS(=O)(=O)N1CCN(c2cccc(Cl)c2)CC1)C1CC1	6202	-2	0	5	3	1.7	-10
Cc1[nH]c(=O)c(C#N)c(C)c1CCC(=O)NCc1ccc(Cl)cc1	4194	0	-3	-1	0	0.6	.
CC(=O)c1ccc(N2CCN(C(=O)c3cc(-c4ccncc4)nc4ccc(Br)cc34)CC2)cc1	6175	2	8	-5	-5	-2.4	-8
CC(C)C(=O)Nc1ccc(C(=O)NNC(=O)NC2CCCCC2)cc1	17675*	7	-1	-5	-7	1.4	-12
O=C(CN1CCCCCC1)Nc1ccc(F)c(F)c1F	?	-5	12	12	6	5.6	-12
O=C(CNC(=O)c1cccc(N2C(=O)c3ccccc3C2=O)c1)Nc1ccc(F)c(F)c1	8754	.	-2	7	1	5.4	-19
C[C@@]12CCC3[C@@](CC[C@@H]4[C@](C)(C(=O)O)CCC[C@@]34C)(C[C@H]1O)C2 (some centres not stated)	3978	-3	-5	-13	7	18	-10
S=C(NN=C1C2CN3CCN(C2)CC1(c1ccccc1)C3)Nc1ccccc1	.	.	7	-2	0	3.5	.
Cc1ccccc1NC1(C#N)C(=O)Nc2ccccc21 (configuration not stated)	4515	-2	-1	0	11	-1.3	-13
CCc1ccc(NC(=O)CSc2nc3ccccc3c(=O)n2CCCN2CCC(C)CC2)cc1	3968	10	-3	.	.	-15	-7
COc1ccc(C=NNC(=O)CN(C)C(=O)OCc2ccccc2)cc1OC	.	.	4	2	-5	4.5	.
Cc1ccc(CCN2CC(C(=O)NCCCN3CCN(C)CC3)CC2=O)cc1 (configuration not stated)	5130	-3	4	1	-1	1.5	-14
COc1ccccc1CNC(=O)COC(=O)c1cccc(S(=O)(=O)N2CCCCC2)c1	4374	-4	.	.	.	.	-7

Results in ugtP null kill, Bead autofluor and Sa RN4220 lethal, for some of the entries so far:
molecule	ugtP null kill	Bead autofluor	Sa RN4220 lethal
S=C(NN=C1C2CN3CCN(C2)CC1(c1ccccc1)C3)Nc1ccccc1	7	.	3.5
Cc1ccccc1NC1(C#N)C(=O)Nc2ccccc21 (configuration not stated)	-1	4515	-1.3

(more compounds)
SMILES	Bead autofluor	BJeLR viability	ugtP null kill	Mtb hypoxia inh	Mtb hypoxia inh growth	Sa RN4220 lethal	PrP 5UTR inh
O=C(NCC1(N2CCCCC2)CCCCC1)c1ccc(S(=O)(=O)N2CCCC2)cc1	9721	0	7	8	-13	5.4	10
O=C(c1ccco1)N(CCC(c1ccccc1)c1ccco1)Cc1ccc(F)cc1 (configuration not stated)	16623*	4	55	7	1	10	-12
CC1CCN(C(=O)COC(=O)c2ccc3c(c2)OCCO3)CC1	4110	.	2	3	4	-1.8	-56
Cc1ccc(OCCCCCN2CCOCC2)c(Cl)c1	3290	-1	18	16	2	5.4	-35
CCc1ccc(N2CC(C(=O)N3CCCCCC3)CC2=O)cc1 (configuration not stated)	3096	-8	.	.	.	.	5
O=C(c1ccc(C(F)(F)F)cc1)N1CCC(=O)N(C(COCc2ccccc2)Cc2ccccc2)CC1 (configuration not stated)	3026	1	5	8	-8	2.8	1
CCCCCCCC(=O)NN=Cc1cccnc1	.	.	3	11	8	5.0	.
COc1ccc(C(=O)N/N=C\c2coc3ccc(Cl)cc3c2=O)cc1	4273	-8	.	.	.	.	-16
Cc1c(NC(=O)Nc2ccc(C(C)(C)C)cc2)c(=O)n(-c2ccccc2)n1C	3290	12	10	6	-4	-1.2	-25
O=S(=O)(C=Cc1ccccc1)Nc1cccc(S(=O)(=O)NC2=NCCC2)c1	.	.	-3	-6	-1	9.1	.
COc1cc(OC)c(OC)cc1CNC(=O)c1ccc(COc2ccccc2)cc1	3694	-13	17	8	10	28	-24
Cc1ccc(CNn2cnnc2SCc2ccc(F)cc2)cc1	22609*	12	-8	5	9	5.5	-36
O=P(OCC1CC1)(c1ccccc1)c1ccccc1	10645	-12	1	9	6	3.5	-8
Cc1cc(C)cc(NS(=O)(=O)c2c(C(=O)N3CCOCC3)c(C)n(C)c2C)c1	5761	2	10	17	2	4.4	-6
CC(=O)c1cccc(NC(=O)COc2nsnc2N2CCOCC2)c1	4555	0	0	1	9	-1.8	-7
Cc1oc(-c2ccc(Cl)cc2)cc1C(=O)O	4530	4	-2	0	7	0.7	-33
Cc1ccc(SCCC(=O)N(C)CC(=O)Nc2c(C)cccc2C)cc1	5456	-4	4	3	3	3.0	-24
Cc1ccc(/C=C2/C(=O)ON=C2c2ccccc2)o1	5996	51*	-4	-8	-6	-2.0	-22
COc1ccc(-c2cc(-c3ccccc3)nc(Cl)n2)cc1OC	.	-4	-2	3	-2	11	-4
Cc1cc(NC(=O)CN2C(=O)NC(C)(c3ccccc3Cl)C2=O)no1 (configuration not stated)	3768	.	3	4	20	2.3	-11
COc1cccc(C2Oc3ccccc3C3CC(c4cccs4)=NN32)c1 (configuration not stated)	5560	5	-7	0	8	4.9	.
Cc1ccc2c(c1)c(=O)c1c3n2CCN(CC#N)C3CC1 (configuration not stated)	4314	2	9	12	11	4.1	-36
Cc1nc2nc(CSc3nc4ccccc4s3)cc(=O)n2[nH]1	4125	-2	-1	0	-4	2.4	-26
COC(=O)c1ccc(OCC(O)CN2CCOCC2)cc1 (configuration not stated)	3707	0	9	4	8	2.6	5
CC(C)CCOc1cccc(C2c3c(oc4ccccc4c3=O)C(=O)N2CCCN2CCOCC2)c1 (configuration not stated)	6399	.	4	.	.	2.7	-12
CNCCCOc1ccc(C(C)(C)c2ccccc2)cc1	.	13	6	10	6	-1.2	.
C=CCN1C(=O)C(CC(=O)O)SC1=NN=Cc1ccc(N(CC)CC)cc1 (configuration not stated)	.	.	-7	-2	4	7.1	.
COc1cccc2cc(-c3nnc(SCC(=O)NCCc4ccccc4)n3C)oc12	3721	3	-3	.	.	-3.6	-3
Cn1c(CNC(=O)c2ccccc2F)nnc1SCc1ccc(Cl)cc1	4372	2	3	10	7	-4.0	-9
CC(C)C(=O)N1CCN(CCN2C(=O)c3cccc4cccc(c34)C2=O)CC1	3671	2	3	1	2	0.1	-6

Reprinted at random: 6 entries already listed
SMILES	Bead autofluor	BJeLR viability	ugtP null kill	Mtb hypoxia inh	Mtb hypoxia inh growth	Sa RN4220 lethal	PrP 5UTR inh
Cc1ccc2c(c1)c(=O)c1c3n2CCN(CC#N)C3CC1 (configuration not stated)	4314	2	9	12	11	4.1	-36
CC(C)CCOc1cccc(C2c3c(oc4ccccc4c3=O)C(=O)N2CCCN2CCOCC2)c1 (configuration not stated)	6399	.	4	.	.	2.7	-12
COc1cccc(C2Oc3ccccc3C3CC(c4cccs4)=NN32)c1 (configuration not stated)	5560	5	-7	0	8	4.9	.
Cc1ccc(/C=C2/C(=O)ON=C2c2ccccc2)o1	5996	51*	-4	-8	-6	-2.0	-22
CNCCCOc1ccc(C(C)(C)c2ccccc2)cc1	.	13	6	10	6	-1.2	.
CC(C)C(=O)N1CCN(CCN2C(=O)c3cccc4cccc(c34)C2=O)CC1	3671	2	3	1	2	0.1	-6

Following part
SMILES	Bead autofluor	BJeLR viability	ugtP null kill	Mtb hypoxia inh	Mtb hypoxia inh growth	Sa RN4220 lethal	PrP 5UTR inh
O=C(NCCOC(=O)c1ccccc1C(=O)OCCNC(=O)c1cccnc1)c1cccnc1	19258*	0	-4	-2	1	4.7	-24
CCOC(=O)c1c(NC(=O)CN2CCOCC2)sc2c1CC(C)(C)OC2	9968	9	0	7	1	21	-15
NC(=O)[C@@H]1CCOc2c(F)cc([N+](=O)[O-])cc2C(=O)N[C@@H](CO)C(=O)NCC(=O)N1	4182	13	.	.	.	.	-21
CCOC(=O)c1nnn(-c2nonc2N)c1-c1ccc(Br)cc1	3393	1	8	10	9	7.8	-26
CCCCc1nc2ccccc2n1CC(=O)NN	2019	-13	1	3	17	7.1	-8
CN1CCN(C(=O)O[C@H]2c3nccnc3C(=O)N2c2ccc(Cl)cn2)CC1	4277	-5	8	7	8	2.7	-1
CCn1cc(CN2N=C(C)CC2c2ccccc2)c(C)n1 (configuration not stated)	2424	-5	-6	3	5	7.9	-2
Cc1cc(NC(=O)CSC2=NS(=O)(=O)c3ccccc3N2)no1	5488	8	14	-3	-5	1.2	-10
Cc1cccc(OC(C)C(=O)OCC(=O)Nc2sccc2C(N)=O)c1 (configuration not stated)	4129	.	-2	19	8	3.3	-13
CCOC(=O)c1cccc(NC(=O)CCS(=O)(=O)c2cccs2)c1	9109	-7	8	11	7	5.9	-11
O=C(CNC1CCCCC1)Nc1ccc([N+](=O)[O-])cc1C(=O)Nc1ccccc1F	4401	6	3	8	2	-12	-9
C=CCn1c(SCC(=O)NCCc2ccccc2)nnc1C1CC1	?	-8	0	2	14	0.7	-10
COCc1[nH][nH]c(=O)c1C=Nc1ccc(Oc2ccccc2)cc1	4034	-5	6	.	.	2.9	-5
O=C1CCC(C(=O)OCC(=O)C23CC4CC(CC(C4)C2)C3)N1 (configuration not stated)	3665	.	7	.	.	4.6	-17
COc1ccc(NC(=O)Cn2c(=O)oc3ccccc32)cc1	4043	2	8	0	16	2.2	.

Looked up above.
In Sa RN4220 lethal, Cc1cccc(OC(C)C(=O)OCC(=O)Nc2sccc2C(N)=O)c1 (configuration not stated) has the entry 3.3
In PrP 5UTR inh, C=CCn1c(SCC(=O)NCCc2ccccc2)nnc1C1CC1 has the entry -10

(more compounds)
SMILES	Bead autofluor	BJeLR viability	ugtP null kill	Mtb hypoxia inh	Mtb hypoxia inh growth	Sa RN4220 lethal	PrP 5UTR inh
Cc1nn(-c2ccccc2)c(=O)c2noc(C)c12	3546	-9	4	-4	-4	3.8	-7
COc1ccccc1CNC(=O)COC(=O)c1ncc(Cl)c(Cl)c1Cl	4221	6	4	3	-6	4.7	-18
CCOC(=O)[C@@H]1[C@H]2COc3cc(OC)ccc3[C@@H]2N2C(=O)N(c3ccc(C(F)(F)F)cc3)C(=O)[C@]12C	3631	6	-11	9	7	-20	-48
COc1ccc(Cl)cc1C(=O)Nn1c(-c2cccs2)nc2ccccc2c1=O	2162	-3	-3	-1	4	25	-49

Three compounds from above, arranged by number of heavy atoms, largest number first.
SMILES	Bead autofluor	BJeLR viability	ugtP null kill	Mtb hypoxia inh	Mtb hypoxia inh growth	Sa RN4220 lethal	PrP 5UTR inh
CC(=O)c1ccc(N2CCN(C(=O)c3cc(-c4ccncc4)nc4ccc(Br)cc34)CC2)cc1	6175	2	8	-5	-5	-2.4	-8
CCOC(=O)c1c(NC(=O)CN2CCOCC2)sc2c1CC(C)(C)OC2	9968	9	0	7	1	21	-15
O=C(NCCS(=O)(=O)N1CCN(c2cccc(Cl)c2)CC1)C1CC1	6202	-2	0	5	3	1.7	-10

Bioassay records as filed in PubChem.
